Screening data deposited in PubChem BioAssay by National Center for Advancing Translational Sciences (NCATS).
Lassa entry inh: inhibitors of Lassa virus binding or cell entry. Potency, µM (doses to about 37.9 µM), for inactives: at the highest dose activity change, negative = inhibition, hits mostly inhibitors. actives 1.2% (n = 300,000). Lassa virus pseudotype entry inhibition, cell reporter; control for the full effect not named in the record. AID 540256; active means well fitted inhibition curve with a large enough effect; inconclusive means small, poorly fitted or top-dose-only effect, or effect the other way; inactive means flat fitted curve, though single readings scatter; tested in HEK293 cells; note: % is set by controls: 0 for no effect and ±100 for the full control effect; nearly all actives have a fitted effect of over 50% in size; luciferase read-out
Marburg entry inh: Marburg virus entry inhibition | Marburg virus pseudotyped entry inhibition, cell reporter; control for the full effect not named in the record; about a third of the inactives were read at about 46 µM | Potency, µM (top dose mostly 37.8 µM), inactives show at the top dose activity change, negative = inhibition, hits mostly inhibitors | actives 1.8% (n = 300,000) | AID 540276; active = well fitted inhibition curve with a large enough effect; inconclusive = small, poorly fitted or top-dose-only effect, or effect the other way; inactive = flat fitted curve, though single readings scatter; tested in HEK293 cells; about a fifth of its hits are not listed in these tables; note: % is set by controls: 0 for no effect and ±100 for the full control effect; luciferase read-out
SARS PLpro yeast: SARS-CoV PLP inhibition in yeast | AID 485353 | actives 0.19% (n = 330,000) | S. cerevisiae expressing SARS-CoV PLpro, growth rescue; control for the full effect not named in the record | Potency, µM (top dose mostly 32.9 µM), without a hit: at the top dose activity, positive = growth rescue; active means well fitted rising curve with a large enough effect; inconclusive means small, poorly fitted or top-dose-only effect; inactive means no such curve, though single readings can be large or run the other way; note: 0% is about no effect; nearly all actives have a fitted effect of over 55% in size; growth read by luminescence after 48 h
RE007 growth inh: less growth of the S. pombe RE007 Vpr strain; S. pombe RE007 Vpr strain, BacTiter-Glo ATP luminescence, 24 h; control for the full effect not named in the record; Potency, µM (titrated, usually from 92.2 µM), without a hit: at the highest dose activity change, negative = less growth; actives 0.21% (n = 360,000); AID 651644; active = well fitted falling curve with a large enough effect; inconclusive = small, poorly fitted or top-dose-only effect; inactive = no such curve, though single readings can be large or run the other way;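 note: % is set by controls: 0 for no effect and ±100 for the full control effect; nearly all actives have a fitted effect of over 50% in size; the assay follows cell death caused by Vpr and the record does not say whether a fall means rescue or toxicity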
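Fission yeast strain RE007, carrying one chromosomally integrated HIV-1 vpr copy, was seeded at OD 0.01 in PMG+AL medium with 23 nL pinned compound. After 24 h at 30 °C and 99% humidity, viability was read by BacTiter-Glo luminescence.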
2A StopGo: FMDV 2A StopGo reporter, luciferase signal; Potency, µM (series often up to 57.9 µM), for inactives: top-dose signal change, negative = less light; actives 1.2% (n = 410,000); human cells with a luciferase reporter of 2A StopGo recoding; control for the full effect not named in the record; AID 1159524; active = well fitted falling curve with a large enough effect; inconclusive = small, poorly fitted or top-dose-only effect; inactive = no such curve, though single readings can be large or run the other way; tested in HEK293T cells; note: % is set by controls: 0 for no effect and ±100 for the full control effect; nearly all actives have a fitted effect of over 45% in size; luciferase light after 4 h
NS1 function inh: blocks influenza NS1 protein function; S. cerevisiae slowed by influenza A NS1, growth recovery by OD600; Potency, µM (doses to about 46.1 µM), for the others: top-dose activity, positive = more growth; actives 0.4% (n = 270,000); active means well fitted rising curve with a large enough effect; inconclusive means small, poorly fitted or top-dose-only effect; inactive means no such curve, though single readings can be large or run the other way; note: nearly all actives have a fitted effect of over 50% in size
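S. cerevisiae expressing influenza A NS1, grown in glucose, washed, then diluted 1:100 into pH 6.0 -URA galactose medium with 23 nl compound. Growth recovery read as OD600; NS1-free strain serves as control.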
Cruzain noTriton: blocks cruzain activity in detergent-free assay; P25779; purified cruzain, Z-FR-AMC fluorescence, no detergent; Potency, µM, inactives show max response, negative = inhibition, usual class: inhibitors; actives 2.3% (n = 200,000); AID 1476;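 note: plate controls were enzyme without inhibitor for no effect and buffer without enzyme for full effect; nearly all actives have a fitted effect of over 40% in size; top concentration of the series not given in the record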
Target sequence (P25779 123-467 limits assumed): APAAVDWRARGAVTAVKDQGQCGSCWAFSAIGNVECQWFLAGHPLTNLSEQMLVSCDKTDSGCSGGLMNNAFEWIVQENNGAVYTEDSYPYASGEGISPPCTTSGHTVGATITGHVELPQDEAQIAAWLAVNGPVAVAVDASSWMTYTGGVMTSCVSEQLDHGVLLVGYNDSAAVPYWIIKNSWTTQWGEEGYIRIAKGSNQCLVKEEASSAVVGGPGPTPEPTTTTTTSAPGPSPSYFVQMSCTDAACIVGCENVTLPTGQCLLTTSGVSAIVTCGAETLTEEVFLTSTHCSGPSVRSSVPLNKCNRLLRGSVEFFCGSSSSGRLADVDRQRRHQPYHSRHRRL
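Detergent-free condition (0.00005% Triton X-100) in acetate buffer pH 5.5 with DTT. 1.5 nM enzyme and compound were pre-mixed 15 min, then 2 uM Z-FR-AMC substrate added; reaction progress from fluorescence change between first and third reads (60 s).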
Cruzain Triton: inhibitors of Trypanosoma cruzi cruzain with detergent. P25779. purified cruzain, Z-FR-AMC fluorescence, 0.01% Triton. AID 1478. Potency, µM, inactives show max response, negative = inhibition, usual class: inhibitors. actives 0.43% (n = 200,000);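 note: plate controls were neutral wells for no effect and buffer without enzyme for full effect; nearly all actives have a fitted effect of over 40% in size; top concentration of the series not given in the record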
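Read-out: AMC fluorescence (360 nm excitation, 450 nm emission), four reads over 2 min, first-to-third difference used. Conditions: cruzain 1.5 nM, Z-FR-AMC 2 uM, pH 5.5 acetate, 5 mM DTT, 0.01% Triton X-100.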
* = called active by the depositor; u = inconclusive; x = not tested or not shown; & = joins results of further samples; [ ] = dose if it differs, or a comment. Unless noted, calls come from the whole dose curve; as a rule, active = well fitted curve in the direction sought with a large enough effect; inconclusive = small, poorly fitted or top-dose-only effect, or another doubt; inactive = no such curve, though single readings can be large; an effect the other way counts as inactive or inconclusive. Potency is the fitted concentration of half-maximal effect. Rows are unselected. About 4.5% of those tested had a hit in this group.

molecule,Lassa entry inh,Marburg entry inh,SARS PLpro yeast,RE007 growth inh,2A StopGo,NS1 function inh,Cruzain noTriton,Cruzain Triton
CC(C)Cc1nc(NCCN2CCOCC2)c(C#N)c2c1COC(C)(C)C2,-23%,-29%,-6%,1%,-23%,-43%,9%,-8.2%
Cc1ccc(Cl)cc1-c1ccc(/C=N/n2cnnc2)o1,6%,-25%,-28%,7%,-5%,-43%,-17%,-12%
CCOC(=O)NC1Cc2ccccc2C1Sc1ccccn1 (stereo not given),x,x,3%,-8%,-25%,-3%,x,x
CCN(CC)C(=O)CSC1=C(C#N)C(c2ccco2)C(C(=O)OCCOC)=C(C)N1 (stereo not given),-10%&15%,-1%&9%,6%,1%&1%,1%&-21%,7%,u,0.4%
CC1CCCN(C(=O)C2CCN(S(=O)(=O)c3cccc4nonc34)CC2)C1 (stereo not given),3%,12%[46.1 µM],0%,10%,18%,-5%,x,x
Cc1ccc(CSc2nc(N)cc(=O)[nH]2)cc1,x,x,4%,0%,-14%,3%,x,x
COc1cc(C(=O)N=C2SC3CS(=O)(=O)CC3N2c2ccccc2)cc(OC)c1OC (stereo not given),x,x,-4%,-10%,2%,-13%,x,x
COC(=O)NNC(=O)Cc1cccc2ccccc12,12%,u,1%,1%,-7%,4%,14%,0.2%
COc1ccccc1-n1c(Cc2cccs2)n[nH]c1=S,-2%[46.1 µM],4%[46.1 µM],-1%,-7%,21%,x,x,x
O=C(NCCc1ccccc1Cl)c1ccc2nc3ccccc3c(=O)n2c1,x,x,-1%,7%,-24%,-4%,x,x
COc1ccc(OC)c(CNC(=O)CCn2c(=O)c3cccn3c3ccc(F)cc32)c1,22%&15%[46.1 µM],-3%&-3%[46.1 µM],-1%,1%,-16%&-7%,-4%,3%,-2.0%
Cc1ccc(S(=O)(=O)NC(Cc2ccccc2)C(=O)O)cc1 (stereo not given),8%,1%[46.1 µM],1%,-15%,-2%,-1%,x,x
CCOC(=O)CCCn1nc(C)n2c(cc3sccc32)c1=O,4%,5%,7%,-2%,7%,-11%,-3%,-1.5%
Cc1cc(NC(=O)CCc2nc3cccnc3n2-c2ccccc2)ccc1Br,u,u,x,x,u,x,12%,-5.0%
O=C(CSc1cccc[n+]1[O-])Nc1cccc(Oc2ccccc2)c1,u,-2%,u,-5%,5%,x,x,x

Part of the list above in a different format.
Cc1cc(NC(=O)CCc2nc3cccnc3n2-c2ccccc2)ccc1Br
  Lassa entry inh = u; Marburg entry inh = u; SARS PLpro yeast = x; RE007 growth inh = x; 2A StopGo = u; NS1 function inh = x; Cruzain noTriton = 12%; Cruzain Triton = -5.0%

Cc1ccc(S(=O)(=O)NC(Cc2ccccc2)C(=O)O)cc1 (stereo not given)
  Lassa entry inh = 8%; Marburg entry inh = 1%[46.1 µM]; SARS PLpro yeast = 1%; RE007 growth inh = -15%; 2A StopGo = -2%; NS1 function inh = -1%; Cruzain noTriton = x; Cruzain Triton = x

Other records
molecule,Lassa entry inh,Marburg entry inh,SARS PLpro yeast,RE007 growth inh,2A StopGo,NS1 function inh,Cruzain noTriton,Cruzain Triton
COC(=O)c1cc(OC)c(OC)cc1NC(=S)N1CCN(C)CC1,15%,u,u,-19%,x,15%,-1%,5.1%
CC1CC(C)CN(Cc2nc(N)nc(Nc3ccc4ccccc4c3)n2)C1 (stereo not given),u,u,1%,-16%,-28%,-9%,11%,5.3%
COc1ccc(NC(=O)C2CCCN(S(=O)(=O)c3cccnc3)C2)cc1 (stereo not given),-18%,-7%,5%,38%,-17%,-7%,6%,2.9%
Cc1ccc(NC(=O)NCCCN2CCCC2=O)cc1Cl,x,x,-4%,16%,46%[activator],3%,x,x
COc1ccc(CCNS(=O)(=O)c2ccc(F)cc2)cc1OC,-8%,-1%,12%,12%,x,-2%,-1%,2.3%
CCOc1ccc(C2CC(=O)n3nc(C45CC6CC(CC(C6)C4)C5)nc3S2)cc1OC (stereo not given),-1%,-9%[46.1 µM],-1%,3%,-16%,10%,17%,-8.2%
O=C(O)CCCC(=O)Nc1ccc(OCc2nc3ccccc3s2)cc1,u,u,1%,-15%,21%,0%,x,x
COC(=O)c1[nH]c2c(c1C)C(=O)CC(c1ccc(C)cc1)C2 (stereo not given),-14%,7%,x,3%,-4%,1%,u,5.7%
O=C(CNC1CCCCC1)NN=C(c1ccccc1)c1ccccc1,u,u,2%,7%,-4%,-2%,x,x
O=C(O)COc1c(F)c(F)c(C(F)(F)F)c(F)c1F,-18%,-1%,1%,9%,-6%,5%,-17%,4.3%
Cc1ccc(C)c(-n2cc(CN3CCNC(=O)CC3)c(-c3ccccc3)n2)c1,-3%[46.1 µM],1%[46.1 µM],-1%,-11%,-7%,-4%,x,x
CCCCn1c(N)c(N(CCOC)C(=O)c2ccc(Cl)c(S(=O)(=O)N3CCCC3)c2)c(=O)[nH]c1=O,5%,1%,5%,2%,-6%,2%,x,x
O=C(c1ccccc1)c1ccc(-n2ccnc2)c([N+](=O)[O-])c1,-3%[46.1 µM],-1%[46.1 µM],4%,-14%,-16%,-5%,x,x
CN(CCc1ccccn1)Cc1ccc(Cl)c(Cl)c1,18%[46.1 µM],3%[46.1 µM],0%,-22%,0%,11%,x,x
COc1ccc(CNC(=O)c2nc(SCc3ccccc3F)ncc2Cl)cc1,u,u,x,x,u,x,-19%,-5.6%
O=C1CCCc2c1cc(C(=O)Nc1ccc(Br)cn1)c(=O)n2-c1ccccc1,7%,-24%[46.1 µM],-7%,-6%,6%,-8%,28%,-4.3%
COc1cc(NC(=O)c2cc3cc4ccc(OC)c(Cl)c4nc3s2)cc(OC)c1,-16%[46.1 µM],x,x,x,-25%,x,8%,-0.2%
COc1cc(NCCCC(C)N)c2ncccc2c1 (stereo not given),u,3.5µM*,0%,-22%,-18%,u,-4%,-3.1%
CCc1ccc2oc(C(=O)N3CCN(c4ccc(OC)cc4)CC3)cc(=O)c2c1,u,x,0%,3%,u,-1%,x,x
CC1(C)CC(=O)c2cn3ncnc3nc2C1,-1%,22%,4%,7%,7%,-3%,-4%,1.3%
COc1ccc(C)cc1NC(=O)C(OC(=O)CNC(=O)c1ccc(Br)cc1)c1ccccc1 (stereo not given),2%,2%,-9%,-1%,16%,5%,10µM*,7.9µM*
COc1ccc(-c2nnc(NC(=O)CS(=O)(=O)c3ccc(F)cc3)o2)cc1,9%,u,0%,-8%,15%,x,x,x
CC1CN(C(=O)CCC(=O)NCCc2ccccc2)c2ccccc2O1 (stereo not given),x,x,u,-1%,20%,-18%,x,x
Cc1cccn2c(=S)[nH]nc12,9%,-1%,x,5%,-8%,x,x,x
O=C(CCS(=O)(=O)c1cc2c3c(c1)CCN3C(=O)CC2)NCc1ccc(Cl)cc1,0%[46.1 µM],x,x,x,1%,x,-5%,1.9%
C/C(=N/N1CCN(Cc2ccccc2)CC1)c1ccc(Br)cc1,x,x,1%,-11%,-26%,16%,x,x
CCCCOC(=O)Nc1ccccc1C(=O)N1CCCC1,2%,10%,26%,6%,0%,-10%,0%,0.3%
O=[N+]([O-])c1ccc(Cl)c(NC2=NCCCCC2)c1,0%,-1%[46.1 µM],-11%,-3%,-9%,-5%,x,x
COc1cc2c(cc1NC(=O)c1cc(-c3ccncc3)nc3ccc(C)cc13)oc1ccccc12,8%,-30%,8%,2%,9%,19%,-9%,-3.4%
COC(=O)C1C(=O)c2c([nH]c(C(=O)OC3CCCCC3)c2C)CC1C (stereo not given),23%,u,-5%,8%,46%[activator],u,-4%,-1.9%
O=C(Nc1ccn(Cc2c(F)c(F)c(F)c(F)c2F)n1)c1cccc(Cn2cc([N+](=O)[O-])cn2)c1,-20%,u,10%,-9%,-20%,-5%,7%,1.3%
COc1ccc(-c2nc3cc(C)ccn3c2NC(=O)c2ccc(F)cc2)cc1,u,u,x,x,42%[activator],x,6%,-8.7%
CCN1CCN(c2sc(S(C)(=O)=O)nc2S(=O)(=O)c2ccc(Cl)cc2)CC1,u,u,20%,-3%,-7%,17%,x,x
CCOc1ccc(C2NC(=O)C(C#N)=C(S)N2c2ccc(OC)cc2)cc1OC (stereo not given),17%,1%,-1%,-11%,9%,u,-24%,-14%
CC1(C(=O)Nc2cccc(Br)c2)Cc2ccccc2C(=O)O1 (stereo not given),22%[46.1 µM],12%[46.1 µM],x,x,0%,x,-17%,-8.0%
COc1ccc(F)cc1C(=O)C1CCCN(C(=O)c2ocnc2C)C1 (stereo not given),5%[46.1 µM],10%[46.1 µM],-1%,-4%,-4%,3%,x,x
N#Cc1c[nH]n2c(NC3CCCCC3)c(-c3ccc(F)cc3)nc12,7%[46.1 µM],7%[46.1 µM],x,x,7%,x,0%,-0.4%
COc1cc(CNc2ncc(-c3ccc(Br)cc3)n2C)cc(OC)c1O,x,x,2%,-11%,-9%,5%,x,x
COc1cc(-c2n[nH]c(=O)o2)cc(OC)c1OC,-4%,-16%,-1%,11%,0%,5%,-10%,1.0%

Single records, as listed above. Screens in order: Lassa entry inh | Marburg entry inh | SARS PLpro yeast | RE007 growth inh | 2A StopGo | NS1 function inh | Cruzain noTriton | Cruzain Triton
COC(=O)NNC(=O)Cc1cccc2ccccc12 reads 12% | u | 1% | 1% | -7% | 4% | 14% | 0.2%
CN(CCc1ccccn1)Cc1ccc(Cl)c(Cl)c1 reads 18%[46.1 µM] | 3%[46.1 µM] | 0% | -22% | 0% | 11% | x | x
CCN(CC)C(=O)CSC1=C(C#N)C(c2ccco2)C(C(=O)OCCOC)=C(C)N1 (stereo not given) reads -10%&15% | -1%&9% | 6% | 1%&1% | 1%&-21% | 7% | u | 0.4%
